FPRL1 binder: human FPRL1 ligand, with FPR counter-screen | FPRL1-expressing cells, fluorescent ligand binding inhibition, flow cytometry | 24,000 tested, 0.3% active | inhibition, %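 (tested at 6.7 µM)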;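 further: 0% = buffer alone and 100% = receptor blocker peptide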
Target sequence (P25090 whole entry, looked up): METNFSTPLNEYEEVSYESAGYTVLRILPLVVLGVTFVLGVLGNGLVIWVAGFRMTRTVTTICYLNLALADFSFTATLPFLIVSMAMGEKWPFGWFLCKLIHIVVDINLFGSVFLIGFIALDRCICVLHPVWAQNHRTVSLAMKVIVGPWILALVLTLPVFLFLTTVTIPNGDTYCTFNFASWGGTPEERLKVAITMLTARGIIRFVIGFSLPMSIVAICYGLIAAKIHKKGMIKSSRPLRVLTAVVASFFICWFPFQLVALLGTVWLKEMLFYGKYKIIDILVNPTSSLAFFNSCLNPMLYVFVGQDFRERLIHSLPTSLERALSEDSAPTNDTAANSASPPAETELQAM
VCAM-1 imaging: inhibitors of TNFa-induced VCAM-1 surface display, imaging, high-content imaging, pooled HUVEC, TNFa stimulus (AID 456). 10,000 tested, 0.2% active. inhibition, % at 5 µM, or IC50 in µM where a hit was titrated. HUVEC TNFa-induced VCAM-1 surface expression, immunofluorescence imaging; numbers were filed only for top-ranked candidate wells;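 active means top tenth filtered wells with inhibition above zero that passed visual or statistical confirmation; inactive means the rest, including hits rejected on review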;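 further: 0% = stimulated vehicle wells and 100% = unstimulated cells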
VCAM-1 down: inhibitors of TNFa-induced VCAM-1 surface display, cell-based, plate reader, pooled HUVEC, TNFa stimulus (AID 454) | HUVEC TNFa-induced VCAM-1 surface immunofluorescence, plate reader; numbers were filed only for top-ranked candidate wells | inhibition, % at 5 µM | 10,000 tested, 0.2% active;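 active means compound among top-ranked inhibitors of TNF-induced VCAM-1 adhesion protein staining, with the hit upheld by image or statistical review; inactive means the rest, including hits rejected on review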;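 further: 0% = TNFa with vehicle and 100% = cells without TNFa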
VCAM-1 up imaging: enhancers of VCAM-1 display on endothelial cells, imaging, high-content imaging, pooled HUVEC, TNFa stimulus (AID 457); Pooled HUVEC, TNFa-induced VCAM-1 immunofluorescence imaging; hits of this screen are not shown here; calls only; 10,000 tested, 0.2% active;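 active means a top-ranked rise in VCAM-1 staining upheld on image or statistical review; inactive means the rest, including candidates rejected on review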;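 further: compounds tested at 5 µM in the well; cells exposed to compound for 24 hours before fixing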
FPR ligand: binds the human formylpeptide receptor FPR; inhibition, %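 (tested at 6.7 µM)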; 24,000 tested, 0.74% active; AID 440; FPR-expressing cells, fluorescent ligand binding, flow cytometry;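 further: 0% = buffer wells and 100% = receptor blocker peptide wells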
Target sequence (P21462 whole entry, looked up): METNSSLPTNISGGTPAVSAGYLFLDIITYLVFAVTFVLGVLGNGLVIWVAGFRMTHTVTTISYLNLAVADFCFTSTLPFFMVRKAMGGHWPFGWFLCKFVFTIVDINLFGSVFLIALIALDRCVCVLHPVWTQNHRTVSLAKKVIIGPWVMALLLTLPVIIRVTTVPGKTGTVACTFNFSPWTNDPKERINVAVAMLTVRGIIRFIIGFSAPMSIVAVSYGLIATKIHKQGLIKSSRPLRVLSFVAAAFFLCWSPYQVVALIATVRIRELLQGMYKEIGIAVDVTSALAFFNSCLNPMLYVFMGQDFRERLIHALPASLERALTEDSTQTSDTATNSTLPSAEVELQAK
* hit, by the source's call; i = inactive; / = no result given.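 How the source made its calls, unless noted: active means mean above 30%; inconclusive means self-fluorescent; inactive means the rest.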

Sequence of screens: FPRL1 binder	VCAM-1 imaging	VCAM-1 down	VCAM-1 up imaging	FPR ligand
CC(=O)Nc1ccc(S(=O)(=O)NCC2CCC(C(=O)N3CCCCCC3)CC2)cc1 (configuration not stated)
 : 1	/	/	/	1
O=C(O)C1C2C=CC(O2)C1C(=O)NC1CCCc2ccccc21 (configuration not stated)
 : -6	/	/	/	-2
CCc1nc2c(cnn2-c2ccc(Cl)cc2)c(=O)n1-c1ccc(OC)cc1
 : 12	/	/	/	6
COc1ccc(CCNc2oc(COc3ccccc3F)nc2C#N)cc1
 : -5	/	/	/	5
O=C(O)c1cnn(-c2ccccc2)c1-n1cccc1
 : 2	/	/	/	7
CCC(CC)C(=O)NCCc1cc2ccc(C)cc2[nH]c1=O
 : -3	i	i	i	3
Cc1ccc(C)c(NC(=O)CSc2nnc(-c3ccccc3)o2)c1
 : -1	i	i	i	0
O=C(c1cc2nc3c(c(C(F)(F)F)n2n1)CCc1ccccc1-3)N1CCN2CCCC2C1 (configuration not stated)
 : -1	/	/	/	1
Cc1ccc(/C=N/n2nnnc2N)o1
 : 3	i	i	i	3
O=C(NC1CCCCC1)C(c1ccccc1)N1CCCC1 (configuration not stated)
 : -3	/	/	/	-2
COC(=O)c1cc2occc2n1CC(=O)Nc1ccc(OC)c(OC)c1OC
 : 5	/	/	/	-5
COc1ccc(OCCCC(=O)Nc2ccc3c(c2)OCCO3)cc1
 : 8	i	i	i	-1
COC(=O)C(NC(C)=O)(Nc1nc2ccc(S(C)(=O)=O)cc2s1)C(F)(F)F (configuration not stated)
 : 0	i	i	i	-4
O=C(c1ccc2nc(N3CCCCC3)sc2c1)N1CCN(c2ccccn2)CC1
 : -1	i	i	i	-4
CCOc1cc2c(cc1OCC)C(c1cc(OC)c(O)c(OC)c1)NCC2 (configuration not stated)
 : -3	/	/	/	2
CCOC(=O)N1CCN(C(=O)c2cnn(-c3ccccc3)c2NC(=O)c2ccccc2F)CC1
 : 1	i	i	i	12
COC(=O)Nc1ccccc1C(=O)N1CCCCC1
 : -3	i	i	i	-4
CCCSc1nc2c(cnn2-c2ccc(C)cc2)c(=O)[nH]1
 : -5	i	i	i	0
CCOC(=O)C1(C(F)(F)F)N=C(N(C)C)OC(N(C)C)=N1
 : -3	/	/	/	-1
COc1ccc(Nc2ncnc3c2cnn3-c2ccccc2)cc1OC
 : 13	i	i	i	-2
CCc1cccc(NC(=O)CN(c2ccc(OC)cc2)S(=O)(=O)c2c(C)n[nH]c2C)c1
 : 1	/	/	/	-2
CCN1C(=O)c2ccccc2S(=O)(=O)c2ccc(C(=O)NCc3cccnc3)cc21
 : 1	i	i	i	-5
Cc1ccnc(NC2c3ccccc3C(=O)N2Cc2ccccc2Cl)c1 (configuration not stated)
 : 4	/	/	/	-6
CC(=O)Cc1nsc(NC(=O)c2ccc(Br)o2)n1
 : 0	/	/	/	2
COc1ccc(CCNC(=O)CSc2nnc(CNC(=O)c3cccs3)o2)cc1OC
 : 1	/	/	/	-5
O=C(Nc1cnn(C23CC4CC(CC(C4)C2)C3)c1)c1cnn2c(C(F)(F)F)cc(-c3ccco3)nc12
 : 0	i	i	i	5
Cc1oc2cc(OCC(=O)O)ccc2c(=O)c1Oc1ccccc1
 : -9	/	/	/	-3
O=C(Cn1cc2c(n1)CCCCC2)NCCCN1CCOCC1
 : 1	/	/	/	-2
Cc1[nH]nc2c1C1(CCN(C(=O)c3ccccc3)CC1)C(C#N)=C(N)O2
 : 0	i	i	i	3
CCOc1ccc(Cc2nc(C)c(CC(=O)N3CCCCC3)c(=O)[nH]2)cc1
 : 3	/	/	/	-4
CCOc1cccc(NC(=O)C2CC(=O)N(C)C(=Nc3ccccc3)S2)c1 (configuration not stated)
 : 0	/	/	/	-2
CCOC(=O)CSC1=C(C#N)C(c2ccc(C)cc2)C(C(=O)OC)C(=O)N1 (configuration not stated)
 : -6	i	i	i	-2
COc1ccc(Cn2nnc3c(=O)[nH]c(C4CCN(C(=O)c5ccccc5Cl)CC4)nc32)cc1
 : 0	/	/	/	-1
CCCCCn1c(CN2CCN(C(=O)OCC)CC2)nc2c1c(=O)[nH]c(=O)n2C
 : -9	i	i	i	3
Cc1ccc(C2CC(=O)NC3=C2C(=O)CCC3)cc1Br (configuration not stated)
 : -7	/	/	/	2
COC(=O)C(C)n1cnc2c(nnn2-c2ccc(OC)cc2)c1=O (configuration not stated)
 : -11	/	/	/	-4
CC(C)=C1C2C=CC1C(C(=O)Nc1cc(C)ccc1C)C2C(=O)O (configuration not stated)
 : 1	/	/	/	-6
CCOC(=O)N1CCC(NC(=O)CCCN2C(=O)CSc3ncccc32)CC1
 : 2	/	/	/	-2
COc1ccccc1N1CCN(C(=O)C(Cc2ccccc2)NC(=O)C2CCCCC2)CC1 (configuration not stated)
 : 6	i	i	i	1
CCOC(=O)CCc1c(C)nc2ncnn2c1C
 : -2	/	/	/	-7
O=C(CSc1nnc(CNC(=O)c2cccs2)o1)NC1CCCC1
 : 2	i	i	i	0
COc1ccc(NC(=O)c2cc(-c3ccc(OC)c(OC)c3)on2)cc1OC
 : -1	/	/	/	0
COc1cc(C2C(C(C)=O)=C(O)C(=O)N2c2ccc(Br)cn2)ccc1O (configuration not stated)
 : -6	/	/	/	-2
CSC1=C(C#N)C(C)CC(=O)N1 (configuration not stated)
 : 2	i	i	i	-4
Cc1ccc(N(CN2CCCC2=O)C(=O)c2ccc(C)c(C)c2)cc1
 : 0	/	/	/	6
Cc1ccc(/C=N/c2sc3c(c2C#N)CCC3)s1
 : 3	/	/	/	-4
COc1ccc(CNC(=O)c2ccc3c(c2)N(C)C(=O)CS3=O)cc1 (configuration not stated)
 : 0	/	/	/	-6
CCN(CC)CCCN1C(=O)C(=O)/C(=C(/O)c2ccc3c(c2)OCO3)C1c1ccccn1 (configuration not stated)
 : 3	i	i	i	0
COc1cc(Br)cc(/C=N/c2ncn[nH]2)c1O
 : 8	i	i	i	0
COc1ccc(-c2cc(C(F)(F)F)n3ncc(C(=O)NCC4CCCO4)c3n2)cc1 (configuration not stated)
 : -2	i	i	i	2
CC1CN(Cc2nc3c(c(=O)[nH]c(=O)n3C)n2CC(N)=O)CC(C)O1 (configuration not stated)
 : -6	i	i	i	-4
CCO/C([O-])=N/c1c[n+](N2CCOCC2)no1
 : 3	i	i	i	-2
Cc1ccc(-n2c(=O)cc(N3CC(C)CC(C)C3)[nH]c2=O)cc1 (configuration not stated)
 : -6	/	/	/	0
CCN(CC)C(=O)c1cn(C)c2ccc(S(=O)(=O)N(CC)CC)cc2c1=O
 : 0	/	/	/	0
Oc1ccc(CN2CCCc3ccccc32)c2cccnc12
 : -5	/	/	/	2
CS(=O)(=O)N1CCCC(C(=O)NCCCN2CCC(Cc3ccccc3)CC2)C1 (configuration not stated)
 : 5	i	i	i	0
O=C(NC1CCCC1)C(c1ccco1)N(Cc1ccccc1)C(=O)c1csnn1 (configuration not stated)
 : -1	i	i	i	-1
CCOc1ccc(-n2c(C)nc3c(cnn3-c3ccc(Cl)cc3)c2=O)cc1
 : 5	i	i	i	-6
COCCNC(=O)c1c[nH]c2ccc(S(=O)(=O)N3CCC4(CC3)OCCO4)cc2c1=O
 : -5	/	/	/	-6
O=C(CSc1nc2ccccc2s1)N1CCOCC1
 : 4	i	i	i	-9

Next part
Sequence of screens: FPRL1 binder	VCAM-1 imaging	VCAM-1 down	VCAM-1 up imaging	FPR ligand
COc1ccc(NC(=O)CCCC2=NS(=O)(=O)c3ccccc3N2)cc1
 : -3	/	/	/	-2
O=C(OCN1C(=O)c2ccccc2C1=O)C1CCCCC1
 : -4	i	i	i	3
COc1cccc(-c2noc(-c3cccs3)n2)c1
 : -9	i	i	i	-2
COc1cc2c(cc1OC)C(COc1ccc3c(C)cc(=O)oc3c1)N(C(=O)c1ccco1)CC2 (configuration not stated)
 : -26	/	/	/	-15
Cc1cc(C)nc(NS(=O)(=O)c2ccc(N)cc2)n1
 : -3	i	i	i	1
COc1ccc(-c2cn3cccnc3n2)cc1NC(=O)CC(C)C
 : 40*	/	/	/	3
Cc1nc2cccc(C(=O)NC3CCCCC3)c2o1
 : 0	i	i	i	-7
O=C(Oc1ccccc1)c1cccc(COC(=O)c2cnccn2)c1
 : 2	i	i	i	0
CCOC(=O)N1CCN(C(=O)Nc2ccc(Cl)cc2)CC1
 : 4	i	i	i	6
O=C1c2oc3ccccc3c(=O)c2C(c2cccc(O)c2)N1c1ccccn1 (configuration not stated)
 : -1	/	/	/	5
COc1cccc(-c2nnc(NC(=O)c3ccc(S(=O)(=O)N(CC(C)C)CC(C)C)cc3)o2)c1
 : 13	/	/	/	3
COc1cccc(N(C(=O)c2ccco2)C(C(=O)NC2CCCC2)c2ccc(N(C)C)cc2)c1 (configuration not stated)
 : 0	i	i	i	1
CC(CC(=O)NC1CCSC1=O)c1ccccc1 (configuration not stated)
 : 6	i	i	i	-4
Cc1cc(C)nc(SCC(=O)Nc2ccc(S(=O)(=O)Nc3nccs3)cc2)n1
 : -7	i	i	i	-1
Cc1ccc(C2CC(C(F)F)n3ncc(C(=O)Nc4cnn(Cc5ccccc5C)c4)c3N2)cc1 (configuration not stated)
 : -6	/	/	/	0
O=C(Nc1cccc(O)c1)c1ccccc1
 : 8	i	i	i	-2
CCOC(=O)N1CCC(NC(=O)C2CCCN(S(C)(=O)=O)C2)CC1 (configuration not stated)
 : 3	/	/	/	2
CCN1CCN(c2cc(C)c3cc(NC(=O)c4ccc(Br)o4)ccc3n2)CC1
 : -12	/	/	/	-5
O=C(c1ccc2c(c1)c(=O)oc1ccccc12)N1CCCCC1
 : -3	i	i	i	5
O=C1CNCc2[nH]c3ccccc3c2N1c1ccccc1
 : 14	i	i	i	14
CCCC(=O)n1nc(-c2ccco2)nc1SCc1ccccc1
 : 5	/	/	/	2
COc1ccc(C(O)c2nccn2Cc2ccccc2)cc1 (configuration not stated)
 : -1	/	/	/	-13
COc1cc(NC(=O)c2cccc3c2C(=O)N(Cc2cccnc2)C3)cc(OC)c1OC
 : -2	/	/	/	2
CCn1c(N)c(C(=O)NCc2cccnc2)sc1=S
 : 2	/	/	/	-4
O=C(O)CCCC(=O)Nc1cccc2cccnc12
 : 20	/	/	/	5
O=C(CN(Cc1ccco1)C(=O)CNS(=O)(=O)c1ccc(Cl)cc1)NCc1ccc(F)cc1
 : 6	i	i	i	9
Cc1cc(C)nc(NC(=O)CCCC(=O)O)c1
 : 1	/	/	/	-3
Cc1ccccc1NC(=O)c1ocnc1C
 : 0	/	/	/	-2

Rewritten with tabs: part of the list above.
SMILES	FPRL1 binder	VCAM-1 imaging	VCAM-1 down	VCAM-1 up imaging	FPR ligand
COc1ccc(NC(=O)CCCC2=NS(=O)(=O)c3ccccc3N2)cc1	-3	/	/	/	-2
O=C(OCN1C(=O)c2ccccc2C1=O)C1CCCCC1	-4	i	i	i	3
COc1cccc(-c2noc(-c3cccs3)n2)c1	-9	i	i	i	-2
COc1cc2c(cc1OC)C(COc1ccc3c(C)cc(=O)oc3c1)N(C(=O)c1ccco1)CC2 (configuration not stated)	-26	/	/	/	-15
Cc1cc(C)nc(NS(=O)(=O)c2ccc(N)cc2)n1	-3	i	i	i	1
COc1ccc(-c2cn3cccnc3n2)cc1NC(=O)CC(C)C	40*	/	/	/	3
Cc1nc2cccc(C(=O)NC3CCCCC3)c2o1	0	i	i	i	-7
O=C(Oc1ccccc1)c1cccc(COC(=O)c2cnccn2)c1	2	i	i	i	0
CCOC(=O)N1CCN(C(=O)Nc2ccc(Cl)cc2)CC1	4	i	i	i	6
O=C1c2oc3ccccc3c(=O)c2C(c2cccc(O)c2)N1c1ccccn1 (configuration not stated)	-1	/	/	/	5
COc1cccc(-c2nnc(NC(=O)c3ccc(S(=O)(=O)N(CC(C)C)CC(C)C)cc3)o2)c1	13	/	/	/	3
COc1cccc(N(C(=O)c2ccco2)C(C(=O)NC2CCCC2)c2ccc(N(C)C)cc2)c1 (configuration not stated)	0	i	i	i	1

Screening data deposited in PubChem by several laboratories.

These rows are one share of the data; count on the stated rates, not on these rows.
